Sa growth 42C – S. aureus growth inhibition at 42 and 30 °C, primary screen, LtaS inhibitor project, RN4220, two temperatures; OD600, 20 h, 42 °C; stronger effect = lower value; relative growth, % (no concentration beside the values); 170,000 tested, 0.53% active; AID 720641, 2013;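 active means growth at 42 °C up to 50% and 20 or more points under that at 30 °C, or under 10% at both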;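 further: 300 nL library stock went into each well; scaled to the means of positive and negative controls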
HCMV UL50-53 inh – inhibitors of HCMV UL50-UL53 interaction, biochemical, HTRF. HCMV UL50-UL53 nuclear egress complex (human cytomegalovirus). normalized percent inhibition. inhibition, % (concentration not given with the values). 190,000 tested, 0.15% active;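 active means both replicates at 50% or more, plus weaker picks with an unusually low signal ratio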;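 further: stock transfer was 100 nL into about 20 µL; 0% = negative control wells and 100% = wells with untagged competitor protein; inactives centre near -12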
GIV Gai3 FP – inhibitors of GIV peptide binding to Galpha-i3, primary screen, biochemical, fluorescence polarization, FITC-GIV GBA peptide, rat Galphai3; AID 1224905, 2016; percent of control (FP), % (no concentration beside the values); 90 min; stronger effect = lower value; scaled: aluminum fluoride 0%, vehicle 100%; 210,000 tested, 0.42% active; Guanine nucleotide-binding protein G(i) subunit alpha-3 (Rattus norvegicus), P08753;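 active means replicate mean at 85% of control or lower, very high polarization wells dropped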;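 further: wells of about 15 µL received 100 nL stock; the first replicate is given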
Target sequence (P08753 whole entry, looked up): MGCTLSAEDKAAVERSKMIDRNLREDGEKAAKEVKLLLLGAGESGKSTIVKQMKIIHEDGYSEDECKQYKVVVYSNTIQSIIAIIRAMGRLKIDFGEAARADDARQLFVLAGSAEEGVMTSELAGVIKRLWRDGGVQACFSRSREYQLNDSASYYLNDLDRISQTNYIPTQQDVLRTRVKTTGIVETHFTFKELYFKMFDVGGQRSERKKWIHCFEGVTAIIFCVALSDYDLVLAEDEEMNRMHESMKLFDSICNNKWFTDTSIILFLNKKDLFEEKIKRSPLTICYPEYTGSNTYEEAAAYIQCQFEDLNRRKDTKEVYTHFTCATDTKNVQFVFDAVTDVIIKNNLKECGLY
Sa growth 42C second temp – further read-out of Sa growth 42C, marked with its call; relative growth, %; measured here: growth at 30 °C;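 optical density after 20 h as mean of two plates; 100% = untreated growth and lower means inhibition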
* = called active by the depositor; · = not tested or not shown; & = joins results of further samples.

Fields: Sa growth 42C, Sa growth 42C second temp, HCMV UL50-53 inh, GIV Gai3 FP
- COc1ccc2[nH]c3c(=O)n(-c4ccc(C)c(C)c4)c(O)nc3c2c1
    91, 79, -27, 101
- COc1ccc(-c2noc(N3CCC(N4CCCCC4)CC3)n2)cc1OC
    ·, ·, 2, 106
- O=C(CSCC(=O)c1ccc2c(c1)Cc1ccccc1-2)Nc1ccccc1
    100, 83, 0, ·
- CCOc1ccc(C2c3c(oc4ccc(C)cc4c3=O)C(=O)N2CCCN(C)C)cc1 (stereo not given)
    93, 91, ·, 100
- CCN(c1cccc(C)c1)S(=O)(=O)c1ccc(N2CCCCS2(=O)=O)cc1
    102, 96, -20, 101&106
- O=C(c1cccnc1)N1CCc2ccccc2C1
    135&110, 83&83, -17&-1, 105
- COc1ccc2nc(SC)[nH]c2c1
    85, 95, -12, 97
- Cn1c(=O)c(=O)n(C)c2cc(S(=O)(=O)C3CCCCC3)c(NC(=O)c3ccc(F)cc3)cc21
    ·, ·, -17, 99
- CCOc1ccc(NC(=O)c2oc3ccccc3c2NC(=O)c2cc3ccccc3o2)cc1
    107, 84, -28, 106
- O=C(NC1CCCCC1)C1CCCN1S(=O)(=O)c1cccc2nsnc12 (stereo not given)
    ·, ·, -107, 104
- COc1ccc(Cn2c(C(=O)O)c(CNCCc3cccs3)c3ccc(OC)cc32)cc1
    93, 93, ·, 106
- CCOc1ccc(CN2C(=O)c3ccccc3Sc3ccc(C(=O)NC)cc32)cc1
    99, 88, -21, 107
- O=C(NCc1ccc(Cl)cc1Cl)c1ccc(Br)o1
    111, 84, -26, ·
- Cc1cc(S(=O)(=O)NCc2ccccc2)ccc1OCC(=O)N1CCOCC1
    105, 100, 1, 108
- COC(=O)c1ccc2c(=O)n(-c3ccc(C)cc3)c(Nc3ccccc3)nc2c1
    100, 95, ·, 135
- COc1cc(OC)cc(C(=O)Nn2c(-c3ccc(Br)cc3)nc3ccccc3c2=O)c1
    ·, ·, -16, 104
- COC(=O)CCN1C(=O)/C(=C\c2ccc(O)c(OC)c2)SC1=S
    94, 80, -55, 182
- Cc1nc(N)nc(C)c1CCC(=O)O
    88, 95, 2, 108
- C/C(=N\O)C(=O)c1ccc(C)cc1
    97, 91, -7, ·
- Cc1cccc(Cc2cnc(N3C(=N)SC(C)C3=O)s2)c1 (stereo not given)
    2.8*, -0.3*, ·, 100

Entries listed so far that have a halogen:
Fields: Sa growth 42C, Sa growth 42C second temp, HCMV UL50-53 inh, GIV Gai3 FP
- Cn1c(=O)c(=O)n(C)c2cc(S(=O)(=O)C3CCCCC3)c(NC(=O)c3ccc(F)cc3)cc21
    ·, ·, -17, 99
- O=C(NCc1ccc(Cl)cc1Cl)c1ccc(Br)o1
    111, 84, -26, ·
- COc1cc(OC)cc(C(=O)Nn2c(-c3ccc(Br)cc3)nc3ccccc3c2=O)c1
    ·, ·, -16, 104

(listing goes on)
Fields: Sa growth 42C, Sa growth 42C second temp, HCMV UL50-53 inh, GIV Gai3 FP
- CCCCn1c(=O)[nH]c2ccccc2c1=O
    77, 87, -36&-31, 101
- N#CC(C#N)c1ccc(C(F)(F)F)cn1
    103, 66, 12, ·
- Cc1cc(-c2onc(C)c2/C(N)=N/O)no1
    101, 94, -24, 106
- COc1ccc(-c2cc(C3CC3)c(C#N)c(N)c2C#N)cc1
    102, 86, -10, ·
- COc1ccc(CN(C(=O)c2ccc(CN3CCOCC3)o2)C(C(=O)NCC2CCCO2)c2ccc(F)cc2)cc1 (stereo not given)
    106, 97, -25, 105
- CCOc1ccc(NC(=O)Cn2nnc(C(=O)NCCc3ccccc3)c2N)cc1
    107, 73, -11, 104
- O=C1CC(=O)CC(c2c(F)cccc2Cl)C1
    ·, ·, -14, 98
- CC(C)OC(=O)c1cc2c(ccn2C)n1CC(=O)N1CCN(c2ccccc2F)CC1
    138, 91, 1, 103
- CCS(=O)(=O)c1ccccc1C(=O)N(Cc1cccnc1)c1nc2cc(C)c(C)cc2s1
    104, 97, ·, 103
- Cc1cccc(NC(=O)c2cc(S(=O)(=O)N3CCN(c4ccccc4F)CC3)ccc2F)c1C
    116, 82, ·, 113

3 of the compounds above, with tabs.
structure	Sa growth 42C	Sa growth 42C second temp	HCMV UL50-53 inh	GIV Gai3 FP
CCOc1ccc(NC(=O)Cn2nnc(C(=O)NCCc3ccccc3)c2N)cc1	107	73	-11	104
O=C1CC(=O)CC(c2c(F)cccc2Cl)C1	·	·	-14	98
CC(C)OC(=O)c1cc2c(ccn2C)n1CC(=O)N1CCN(c2ccccc2F)CC1	138	91	1	103

Continued:
Fields: Sa growth 42C, Sa growth 42C second temp, HCMV UL50-53 inh, GIV Gai3 FP
- CCOC(=O)N1CCN(S(=O)(=O)c2ccc(C(=O)Nc3cccc(-c4nc5ccccc5o4)c3)cc2)CC1
    ·, ·, -16, 100
- COCc1c(C(=O)NCC2COc3ccccc3O2)oc2ccccc12 (stereo not given)
    102, 87, -37, ·
- O=C(Nc1ccc(-c2nc3ccccc3s2)cc1)c1ccno1
    109, 99, -4, 107
- CCOc1ccc(NC(=O)CSCc2nc3cccnc3n2C2CCCCC2)cc1
    ·, ·, -9, 114
- CCC(C(=O)Nc1ccccc1C(=O)OC)n1c(C)c2cnn(-c3ccccc3)c(=O)c2c1C (stereo not given)
    110, 100, 4, 105
- O=C(Nc1ccc(-n2nc(C(F)(F)F)cc2-c2cccs2)cc1)c1ccno1
    109, 83, 4, 99
- CC1(C)C(=O)N(CC(=O)NC2CCCc3ccccc32)c2ccc(S(=O)(=O)N3CCCC3)cc21 (stereo not given)
    ·, ·, -7, 105
- Cc1ccc(Cl)cc1NC(=O)CN1C(=O)C(C)(C)c2cc(S(=O)(=O)N3CCCCC3)ccc21
    97, 101, ·, 105
- CCCCc1ccc(NC(=O)N=S2CCN(c3ncc(C(F)(F)F)cc3Cl)CC2)cc1
    92, 85, -38, 103
- OC(Cc1nc2ccccc2o1)c1ccccc1 (stereo not given)
    108, 106, -4, 110
- COc1ccc(C2Nc3nc4ccccc4n3C(C)=C2C(=O)Nc2ccccc2)cc1 (stereo not given)
    111, 97, 10, 103
- O=CN/N=C/c1ccc(Cl)cc1
    79, 94, -23, ·
- Cc1cc(C)cc(NS(=O)(=O)c2ccc3[nH]cc(C(=O)N(C)Cc4ccccc4)c(=O)c3c2)c1
    91, 67, 7, 105
- COc1ccc(CC(=O)N2CCc3c(c(C(=O)NCc4ccc(Cl)cc4)nn3C)C2)cc1OC
    ·, ·, -16, 104
- CC1=[N+](CCC#N)c2ccccc2C1(C)C
    92, 88, -11, ·
- NS(=O)(=O)c1ncn(Cc2ccccc2)n1
    109, 92, 0, ·
- Cc1ccc(NS(=O)(=O)Cc2ccccc2)nc1
    100, 91, -6, 101
- COc1cc(Nc2nn(-c3ccc(OC(F)(F)F)cc3)nc2C(C)=O)cc(OC)c1
    109, 91, -29, 92
- CN(C)c1ccc(CNC(=O)CCCN2C(=O)CCn3nc(-c4cn(C)c5ccccc45)cc32)cc1
    96, 77, ·, 100
- COc1ccc(OC)c(Nc2nc3nonc3nc2Nc2ccc(F)cc2)c1
    ·, ·, -11, 101

Some of these compounds in order of molecular weight, rising:
Fields: Sa growth 42C, Sa growth 42C second temp, HCMV UL50-53 inh, GIV Gai3 FP
- O=CN/N=C/c1ccc(Cl)cc1
    79, 94, -23, ·
- Cc1ccc(NS(=O)(=O)Cc2ccccc2)nc1
    100, 91, -6, 101
- COc1ccc(C2Nc3nc4ccccc4n3C(C)=C2C(=O)Nc2ccccc2)cc1 (stereo not given)
    111, 97, 10, 103
- COc1cc(Nc2nn(-c3ccc(OC(F)(F)F)cc3)nc2C(C)=O)cc(OC)c1
    109, 91, -29, 92
- Cc1cc(C)cc(NS(=O)(=O)c2ccc3[nH]cc(C(=O)N(C)Cc4ccccc4)c(=O)c3c2)c1
    91, 67, 7, 105
- COc1ccc(CC(=O)N2CCc3c(c(C(=O)NCc4ccc(Cl)cc4)nn3C)C2)cc1OC
    ·, ·, -16, 104

The list continues.
Fields: Sa growth 42C, Sa growth 42C second temp, HCMV UL50-53 inh, GIV Gai3 FP
- CCOC(=O)c1cnc2cc(-c3ccc(OCC)cc3)nn2c1-c1ccccc1
    90, 93, 93, 105&101
- C=CCN(CC=C)C(=O)c1cccc(OC)c1
    85, 99, 8, ·
- CCOc1ccc(N(CC(=O)N2CC(=O)Nc3ccccc32)S(C)(=O)=O)cc1
    ·, ·, 7, 102
- O=C(Cn1ccn2nc(-c3ccc4c(c3)OCO4)cc2c1=O)NCc1ccccc1
    ·, ·, -32, 104
- O=C(NC1=NCCCCCN1)Nc1cccc(Cl)c1
    83, 88, 1, ·
- COc1ccc2[nH]c3c(c2c1)CCNC31CCN(C)CC1
    ·, ·, 13, 113
- CCCOc1ccc(C(=O)NCCc2csc(-c3ccccc3)n2)cc1
    ·, ·, 7, 102
- Cc1nc(SCc2ccccc2C#N)n(C2CCCC2)c1C
    115, 90, -13, ·
- C=CCN1C(=O)C2(c3ccccc31)c1c(oc3ccc(C)cc3c1=O)C(=O)N2CC1CCCO1 (stereo not given)
    ·, ·, -26, 108
- O=C(O)c1cnn(-c2ccccc2)c1-n1cccc1CNCc1ccc(F)cc1
    ·, ·, -11, 99
- O=C(NCC1CCCO1)c1sc2ncccc2c1-n1cccc1 (stereo not given)
    ·, ·, -5, 105
- COc1cc(Nc2c3c(nc4ncnn24)CCCC3)cc(OC)c1
    ·, ·, -27, 105
- Cc1nc(-c2ccccc2)sc1CCNS(=O)(=O)c1ccc(Br)cc1
    103, 107, ·, 110
- CCc1ccc(OCC(O)Cn2c(SCCC(=O)O)nc3c2c(=O)[nH]c(=O)n3C)cc1 (stereo not given)
    ·, ·, -2, 97
- C=CCNC(=O)CSc1nnc(CSc2cccs2)n1C
    108, 88, 3, 107
- CCN(CC)S(=O)(=O)c1c(C)cc(C)cc1C
    103, 104, 3, ·
- N#Cc1ccccc1NC(=O)COc1ccc2ccc(=O)oc2c1
    103, 99, -20, ·
- O=c1cc(N2CCN(c3ccccc3)CC2)[nH]c(=O)n1-c1ccc(Cl)cc1
    84, 88, ·, 98
- Cc1csc(=O)n1CC(=O)OCC(=O)NC1(C#N)CCCCC1
    99, 93, 11, ·
- NC(=O)CCS(=O)(=O)c1ccc(Cl)cc1
    77, 97, 14, ·
- COc1ccccc1NS(=O)(=O)c1ccc2oc(Nc3ccc(S(=O)(=O)N4CCCCC4)cc3)nc2c1
    83, 89, -12, ·
- CC(C)(C)C(=O)NCC(c1ccco1)N1CCN(c2ccc(F)cc2)CC1 (stereo not given)
    98, 89, -20, 104
- COc1ccc(OC)c(Nc2nc(-c3cccc(Cl)c3)c3c(n2)-c2ccccc2OC3)c1
    91, 83, ·, 98
- CCOc1ccc(-n2c(N)c(C(=O)NCc3cccnc3)sc2=S)cc1
    102, 97, -28, 98
- O=C1CC(CSc2nnnn2-c2ccccc2)=NN1c1ccccc1
    94, 50, -9, 104
- CCc1nn2c(=O)cc(COC(=O)c3ccccc3NC(=O)c3ccc(C(C)(C)C)cc3)nc2s1
    115, 89, ·, 104
- Cc1nnc2c3ccccc3nc(NCc3ccccn3)n12
    ·, ·, 0, 105
- C=CC[C@@H]1Cc2ccccc2[C@H](CC=C)N1
    67, 86, ·, 111
- COc1ccc(C(=O)CN2Cc3ccccc3C2=N)cc1OC
    71, 93, ·, 101
- CC(C)Cn1c(=O)c(C#N)cc2c(=O)n3ccccc3nc21
    81, 89, ·, 107
- COc1ccc(/C=C2\COc3ccc(C)cc3C2=O)cc1O
    ·, ·, -3, 100
- Cc1ccc(C2C3=C(CC(c4ccccc4)CC3=O)Nc3ncnn32)cc1 (stereo not given)
    ·, ·, -36, 100
- O=C(c1cccs1)N(Cc1cccnc1)c1nc2c(F)cc(F)cc2s1
    115, 82, ·, 101
- CN1CCN(C(CNC(=O)c2ccccc2F)c2ccc3c(c2)OCO3)CC1 (stereo not given)
    92, 86, ·, 99
- Cc1cccc(C)c1NC1=NCCCCC1
    113, 90, -19, ·
- COc1ccc(SS(=O)(=O)c2ccc(OC)c(NC(C)=O)c2)cc1NC(C)=O
    70, 90, -22, ·
- CC1CN(C(=O)NC23CC4CC(CC(C4)C2)C3)c2cc(Cl)ccc2O1 (stereo not given)
    89, 80, ·, 105
- N#Cc1cccc(NC(=O)CN2CCc3ccccc32)c1
    104, 93, -4, ·
- Clc1ccc(-c2nc(N3CCN(Cc4ccc5c(c4)OCO5)CC3)c3ccccc3n2)cc1
    112, 90, -20, 105
- COC(=O)/C=c1\sc2ncnn2c1=O
    106, 92, ·, 101
- CCc1ccc(NS(=O)(=O)c2ccc3[nH]cc(C(=O)N(CC)CC)c(=O)c3c2)cc1
    101, 95, 16, 114
- CCOC(=O)c1ccc(NC(=O)Cn2cnc(S(=O)(=O)N3CCCC3)c2)cc1
    108, 92, ·, 99
- CC(=O)N1c2c(ccc3ccccc23)C(C)=CC1(C)C
    54, 58, ·, 101
- Cc1cc(NCc2ccccc2)nc(NCc2ccccc2)n1
    73, 28, 0, 104
- O=C(Cn1ncc2c1-c1ccccc1OC2)NCc1cccnc1
    97, 85, 3, 104
- Cc1ccc(S(=O)(=O)Nc2cccc(C(=O)N3CCCCC3)c2)cc1
    112, 90, -10, 107
- COC(=O)c1sccc1NC=C(C#N)C#N
    102, 98, 10, 115
- Cc1ccc(C(=O)Cn2nc3n(C(C)C)c(=O)c4ccc(C(=O)NCC(C)C)cc4n3c2=O)c(C)c1
    ·, ·, -32, 105
- CCCCn1c(SCc2ccccc2)nc2ccsc2c1=O
    90, 84, 6, 97
